Screens (PubChem)
AID504770: growth inhibitors of E. coli YBA685 in a screen for V. cholerae RctB (chromosome II replication) inhibitors; z-score (test concentration not listed); 130,000 compounds, 0.27% hits; E. coli YBA685 rctB-dependent plasmid, OD600 growth, 3 h; active compounds read low;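 active = z-score under -2 on both plates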;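 note: wells of about 30 µL received 100 nL stock; score is relative to mean and SD of the test wells; the first replicate is given; strong numbers were not always called active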
Ba CapD inh: blocks the Bacillus anthracis CapD enzyme; purified CapD enzyme, fluorescence intensity read-out; active compounds read low; some hits fall short of the stated cut; 140,000 compounds, 0.23% hits; z-score (concentration not given with the values);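 active = z-score under -4 in either of two replicates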;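 note: stock transfer was 100 nL into about 40 µL; score is relative to mean and spread of the plate; one replicate is shown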
The depositor's hits bear a star; nt = no result given. An excerpt. The share of hits here may be higher or lower than overall.

SMILES | AID504770 | Ba CapD inh
CC1=NN(c2cccc(Cl)c2)C(=O)/C1=C/c1ccc(OCc2ccccc2)cc1 | nt | -0.18
O=Nc1c(-c2ccccc2)[nH]oc1=O | nt | 0.065
Cc1ccc(-c2noc(CNC(=O)NC3CCCCC3)n2)cc1 | 1.9 | -0.43
Cc1nn(-c2ccccc2)c2sc(C(=O)NN3CC(O)=C(c4ccccc4)C3=N)cc12 | 0.45 | nt
NNC(=S)Nc1cccc(C(F)(F)F)c1 | nt | 0.68
CC(C)C(=O)N=C1SC2CS(=O)(=O)CC2N1CCc1ccccc1 (configuration not stated) | -0.6 | -0.275
Cc1ccc(C2(CC(=O)Nc3ccccc3C)CCOC(C)(C)C2)cc1 (configuration not stated) | -0.9 | 0.115
Cc1ccc(S(=O)(=O)N(CCC(=O)O)c2ccccc2)cc1 | -0.45 | nt
CC12Nc3ccccc3C1(C)CCO2 (configuration not stated) | -0.2 | nt
CN(C)c1ccc(NC(=O)c2ccc(Cl)cc2)cc1C(=O)O | -0.55 | -0.345
O=C(Nc1nnc(-c2ccc3c(c2)OCCO3)o1)c1ccc(NS(=O)(=O)c2ccccc2)cc1 | -0.25 | nt
NC(=O)c1cc2cc(Br)ccc2o1 | 0.25 | nt
O=C(CC1SC(=NC2CC2)NC1=O)NCc1ccccc1 (configuration not stated) | 0.1 | nt
O=C(CCN1C(=O)C2C3C=CC(C3)C2C1=O)NC1CCCCC1 (configuration not stated) | 0.3 | 0.125
O=C(COC(=O)c1ccccc1Sc1ncnc2sc3c(c12)CCC3)NCc1ccco1 | 0.45 | nt
COc1ccc(S(=O)(=O)N=S(C)(=O)c2ccc(C)cc2)cc1 (configuration not stated) | -1.35 | -0.435
Cc1cc2ncn(CCC(=O)Nc3ccccc3F)c2cc1C | 1.4 | nt
O=C(/C=C/c1ccc(Cl)cc1)N1CCN(c2ccccc2)CC1 | 0.5 | 1.01
CCn1c(C(=O)O)c(CNC2CCCC2)c2ccc(C)cc21 | 0.35 | 1.98
OC(CN1CCN(C(c2ccccc2)c2ccccc2)CC1)Oc1cccc(C(F)(F)F)c1 (configuration not stated) | 0.5 | 0.54
CC1=CC(=N/C(C)=N/S(=O)(=O)c2ccc(C)cc2)C=C(C)C1=O | 1.35 | nt
COCc1cc(C)nc2sc(C(=O)Nc3cccc4ccccc34)c(N)c12 | nt | 0.375
N#Cc1cc2c(nc1SCC(O)CS(=O)(=O)Cc1ccc(Cl)cc1)CCCC2 (configuration not stated) | nt | -1.02
Fc1ccc(/C=N/c2nnc3nc[nH]n23)cc1 | -0.7 | -1.75
COC(=O)N1CCC(=O)Nc2ccccc21 | -0.7 | 0.365
SMILES | AID504770 | Ba CapD inh
O=C(NCN1CCN(Cc2ccccc2)CC1)c1ccccc1 | 0.55 | 6.55
COc1cccc(NCc2ccc(O)c3ncccc23)c1 | -0.25 | -1.9
C=CCOc1cccc(C(=O)Nc2ncn[nH]2)c1 | 0.95 | -0.395
CCOC1O[C@@H]2[C@H](O1)[C@@H](CO)O[C@H]2n1cnc2c(N)ncnc21 (some centres not stated) | nt | 0.46
N#C/C(=C/c1ccc(-c2cccc(C(F)(F)F)c2)o1)c1ccc(C#N)cc1 | -1 | -0.95
O=C(O)CCc1nc2c3c4c(sc3ncn2n1)CCCC4 | -0.2 | 0.78
CC(CC(=O)N1CCOCC1)c1ccccc1 (configuration not stated) | 1.2 | 0.27
Cc1ccccc1-c1nc2cc(NC(=O)c3cccc(F)c3)ccc2o1 | -0.35 | -0.085
CCOC(=O)CSc1nc(NCc2ccc(OC)cc2)c2ccccc2n1 | nt | -0.42
CCn1c2c(c3cc(C)ccc31)CCCC2=O | -1.45 | 18.6
Cc1nc(C(=O)N/N=C/c2cn(C)c3ccccc23)cs1 | nt | 22.9
Cc1ccc(Cl)cc1NC(=O)Cn1cnc2c(cnn2C)c1=O | -0.4 | 0.98
Clc1ccc(/C=N/N2CCCCC2)cc1 | -1.25 | -0.895
O=c1c2ccccc2nc(SCc2cccnc2)n1CCc1ccccc1 | nt | -0.6
CCOC(=O)c1[nH]c2ccc(Br)cc2c1C | -0.5 | -0.065
CCN=C1SC(CC(=O)Nc2cccc(C(=O)O)c2)C(=O)N1CC (configuration not stated) | -0.1 | 1
COc1nc(C)nc(NC(=O)NS(=O)(=O)c2c(Cl)nc(C)c(Cl)c2C)n1 | nt | -0.185
Oc1ccc(-c2[nH]ncc2-c2cccc3cccnc23)c(O)c1 | 0.35 | 0.16
Cc1ccc2nncc(N3CCN(c4ccccc4F)CC3)c2c1 | 0.3 | -0.085
COCCNC(=O)c1cc(-c2cccc(OC)c2)no1 | -0.15 | -0.245
CCOc1ccc2nc(NC(=O)CSc3nnc(Cc4csc(C)n4)o3)sc2c1 | 0.15 | nt
N#Cc1ccc(OCc2nnc(SCC(=O)c3ccccc3)n2-c2ccccc2)cc1 | -0.5 | nt
c1ccc(C2C3CC4CC(C3)CC2C4)cc1 (configuration not stated) | nt | -0.345
CCOc1ccccc1NC(=O)c1cc(S(=O)(=O)N2CCN(c3ccccc3OC)CC2)ccc1F | nt | 0.505
CCOC(=O)C1=C(C)N=c2s/c(=C\c3ccc(C(=O)OC)cc3)c(=O)n2C1c1ccc(Cl)cc1 (configuration not stated) | nt | 0.42

Record cards (already shown). Order of values: AID504770	Ba CapD inh
Shown for N#C/C(=C/c1ccc(-c2cccc(C(F)(F)F)c2)o1)c1ccc(C#N)cc1 = -1	-0.95
Shown for CCOc1ccc2nc(NC(=O)CSc3nnc(Cc4csc(C)n4)o3)sc2c1 = 0.15	nt

More compounds:
SMILES | AID504770 | Ba CapD inh
O=C(COc1ncnc2c1cnn2-c1ccccc1)N1CCc2ccccc21 | 0.55 | nt
CCCCn1nc(C)c(C(=O)O)c1Cl | 0.8 | nt
Cc1cc(C)nc(NS(=O)(=O)c2ccc(Nc3nc(-c4sc(C)nc4C)cs3)cc2)n1 | nt | -0.04
CCOC(=O)c1[nH]c(C)c(S(=O)(=O)NC2CCCCNC2=O)c1C (configuration not stated) | 0.6 | 0.405
O=C(C[n+]1ccccc1)c1cccc([N+](=O)[O-])c1 | nt | -0.525
C/S(=N\S(=O)(=O)c1ccccc1)c1ccccc1 (configuration not stated) | -0.55 | -1.02
CCOC(=O)c1c[nH]c2c(C(=O)OC)cccc2c1=O | -0.5 | 3.64
CC12CCC(=O)N1C(C(=O)OCC(=O)N1CCc3ccccc31)CS2 (configuration not stated) | 0.2 | nt
CC1CCN(CN2C(=O)CCC2=O)CC1 | 0.05 | nt
CCOc1ccccc1C(=O)Nc1cccc(-c2ccc(N3CCOCC3)nn2)c1 | 0.05 | nt
O=C(NCCO)c1ccc(CSc2nc3sc4c(c3c(=O)[nH]2)CCC4)cc1 | 7.05 | 0.98
COc1ccc(N2CCN(C(=O)c3sc4nc(C)nc(N5CCOCC5)c4c3C)CC2)cc1 | nt | -0.36
O=C1c2ccccc2C2(c3ccccc3)N1CCN2S(=O)(=O)c1cccc(C(F)(F)F)c1 (configuration not stated) | nt | 0.06
CC(C)(C)c1cc2nc(C(F)(F)F)cc(C#N)n2n1 | 0.05 | -0.405
CC(C)CN(CC(C)C)C(=O)CCN1C(=O)c2ccccc2C1=O | -0.4 | 0.485
O=C(Cn1cnc2scc(-c3ccc(Br)cc3)c2c1=O)N1CCNC1=O | -0.2 | nt
O=C(CN1CCN(Cc2ccc3c(c2)OCO3)CC1)N(c1ccccc1)C1CCS(=O)(=O)C1 (configuration not stated) | -0.15 | nt
O=C(Nc1nnc(C(F)(F)F)s1)C1CC(=O)N(c2ccc(Cl)cc2)C1 (configuration not stated) | 1.75 | nt
CCOC(=O)C1=C(CSc2nc(N)c(C#N)c(-c3cccs3)c2C#N)OC(N)=C(C#N)C1c1ccccc1 (configuration not stated) | nt | 0.32
CC1(C)N(O)C2=C(N=O)CCC(N=O)=C2N1O | -0.6 | -0.025
O=c1[nH]c2ccccc2n1CCCSc1ncnc2ccccc12 | -1.05 | nt
CCCN1CCc2c(sc(NC(=S)NC(=O)c3ccccc3)c2C#N)C1 | 0.2 | 10
COc1cccc([C@H]2[C@H](C(=O)C34CC5CC(CC(C5)C3)C4)N3C=Cc4ccccc4[C@H]3C2(C#N)C#N)c1 | nt | 1.24
CC(C(N)=O)N1c2cccc3cccc(c23)S1(=O)=O (configuration not stated) | 2.2 | 19.1
Cc1cccc(OCc2nnc(SCC(=O)N3c4ccccc4CCc4ccccc43)o2)c1 | 2 | nt

Of the compounds above, these contain an NH in an aromatic ring:
SMILES | AID504770 | Ba CapD inh
O=Nc1c(-c2ccccc2)[nH]oc1=O | nt | 0.065
Fc1ccc(/C=N/c2nnc3nc[nH]n23)cc1 | -0.7 | -1.75
C=CCOc1cccc(C(=O)Nc2ncn[nH]2)c1 | 0.95 | -0.395
CCOC(=O)c1[nH]c2ccc(Br)cc2c1C | -0.5 | -0.065
Oc1ccc(-c2[nH]ncc2-c2cccc3cccnc23)c(O)c1 | 0.35 | 0.16
CCOC(=O)c1[nH]c(C)c(S(=O)(=O)NC2CCCCNC2=O)c1C (configuration not stated) | 0.6 | 0.405
CCOC(=O)c1c[nH]c2c(C(=O)OC)cccc2c1=O | -0.5 | 3.64
O=C(NCCO)c1ccc(CSc2nc3sc4c(c3c(=O)[nH]2)CCC4)cc1 | 7.05 | 0.98
O=c1[nH]c2ccccc2n1CCCSc1ncnc2ccccc12 | -1.05 | nt

Random excerpt: 2 records from the list
SMILES | AID504770 | Ba CapD inh
O=C1c2ccccc2C2(c3ccccc3)N1CCN2S(=O)(=O)c1cccc(C(F)(F)F)c1 (configuration not stated) | nt | 0.06
O=c1[nH]c2ccccc2n1CCCSc1ncnc2ccccc12 | -1.05 | nt

The list continues:
SMILES | AID504770 | Ba CapD inh
CC1(C)C2CC=C(CN3CCN(c4ccccc4)CC3)C1C2 (configuration not stated) | -0.65 | 0.05
O=C(O)Cn1nnc(-c2ccncc2)n1 | 1.45 | nt
O=C(O)c1cccc(Sc2cccc(C(=O)O)c2)c1 | 0.9 | 0.19
COc1ccc(CC(=O)Nc2c(C)nc3cc(C)ccn3c2=O)cc1 | -0.45 | nt
CC1=C(C(=O)Nc2ccccc2)C(c2ccco2)C(C#N)=C(SCC(=O)Nc2ccc(Cl)c(Cl)c2)N1 (configuration not stated) | nt | -0.215
O=C(N1CCCc2ccccc21)N1c2ccccc2Sc2ccccc21 | -0.3 | -1.59
CCCCCCCCCCCCOC=C1c2cc([N+](=O)[O-])cc([N+](=O)[O-])c2-c2c1cc([N+](=O)[O-])cc2[N+](=O)[O-] | nt | -0.59
O=C1C2C(c3ccccc3)OC3(C(=O)c4ccccc4C3=O)C2C(=O)N1c1cccc(F)c1 (configuration not stated) | nt | 0.03
Cn1nc(C(=O)OCC(=O)NC2CC2)c2ccccc2c1=O | 0.85 | nt
CCn1c(SCC(N)=O)nc2ccccc2c1=O | 2.05 | nt
CCOC(=O)c1oc2ccccc2c1NC(=O)CC | -0.1 | nt
CCOC(=O)c1ccc(NS(=O)(=O)N2CCOCC2)cc1 | -0.1 | nt
Cc1cc(C(=O)Nc2cccc(COC(=O)c3cc(C)on3)c2)no1 | 0.55 | 0.235
CCNS(=O)(=O)c1ccc(NC(=O)c2c(-c3ccccc3)noc2C)cc1 | 2.55 | -0.46
CCOC(=O)N1CCc2c(sc(NCc3cccnc3)c2C(=O)Nc2ccc(OC)cc2OC)C1 | 1.05 | -0.43
Cc1ccc(NC(=O)CC2C(=O)Nc3ccccc3N2C(C)C(=O)N2CCCCC2)c(C)c1 (configuration not stated) | -0.3 | nt
O=C(/C=C/c1cccc(Br)c1)N1CCc2ccccc21 | 0 | 0.31
CCOc1ccc(-n2cc(C(=O)O)c3cc(OC)c(OC)cc3c2=O)cc1 | nt | 1.57
O=C(Nc1ccc(-c2noc(-c3cccc([N+](=O)[O-])c3)n2)cc1)c1cccc(Cl)c1 | nt | 0.35
CC1CCN(Cc2cn3c(-c4ccc(Br)cc4)nnc3s2)CC1 | 0.5 | -0.785
Cc1ccc(S(C)(=O)=NS(=O)(=O)c2cccc3nsnc23)cc1 (configuration not stated) | -1.35 | 1.77
CCCCCCC#CCOC(=O)NCc1ccc(S(N)(=O)=O)cc1 | nt | 0.345
O=C(Nc1ccccc1Br)c1ccccc1Oc1ccccc1 | -0.4 | 0.29
O=c1[nH][nH]c(=S)n1Cc1ccco1 | 0.2 | 0.115
CCO/C=C(/C#N)c1nc(C)cs1 | -0.45 | nt
SMILES | AID504770 | Ba CapD inh
O=S(=O)(Cc1c(F)cccc1Cl)c1cccs1 | 0.2 | 0
COc1ccc(C(=O)CSc2nnc3n2CCCCC3)cc1 | -0.15 | -0.02
Cn1ncc(C(=O)O/N=C(\c2ccccc2)c2ccccc2N)c1-n1cccc1 | 1.2 | 0.42
CCOC(=O)C1CCCN(S(=O)(=O)c2ccc(OC)cc2)C1 (configuration not stated) | -0.55 | nt
O=C(O)C1CN=C(Cc2ccccc2)N1 (configuration not stated) | -0.45 | nt
O=C(Nc1ccc(F)c(F)c1)c1sccc1Oc1ccc(F)cc1[N+](=O)[O-] | nt | -0.865
C(C=Cc1ccn[nH]1)=Cc1ccccc1 | 0.6 | 62.7
COC(=O)/C=C/c1ccc(SC)cc1 | -0.05 | 0.28
COc1ccc(-c2nc3scc(CCNC(=O)/C=C/c4ccco4)n3n2)cc1 | 1.65 | nt
COC(=O)CCS(=O)(=O)c1cccs1 | -1.85 | nt
CCc1ccc(CCC(=O)Nc2ccc(C)c(C)c2)o1 | -0.4 | nt
CC(C)S(=O)(=O)c1cnc(N2CCCC2)nc1N | nt | 0.485
COc1cc(-c2nc3ccccc3c(=O)[nH]2)cc(Cl)c1O | 0.4 | -0.365
CN(CC(=O)NCc1ccccc1)S(=O)(=O)c1cnc[nH]1 | 0 | -1.36
COc1ccc(-c2ccccc2)cc1Br | -0.1 | 0.245
O=C(CCN(Cc1ccco1)S(=O)(=O)c1ccc(Cl)cc1)Nc1ccc(Cl)cc1 | 0.4 | -0.215
O=C(Nc1cc2c(=O)n(-c3nccs3)ccc2oc1=O)c1ccccc1 | nt | 3.33
CC1Cc2nc(SC/C=C/c3ccccc3)n(C)c(=O)c2S1 (configuration not stated) | 0.3 | 0.425
